VACV mCherry inh: vaccinia inhibition (mCherry reporter). Vaccinia virus mCherry reporter infection, fluorescence; about a quarter of the inactives have no number. Potency, µM (highest dose often 36.5 µM), inactives show top-dose activity change, negative = inhibition, actives largely listed as inhibitors. hit rate 0.63% among 310,000; active = well fitted inhibition curve with a large enough effect; inconclusive = small, poorly fitted or top-dose-only effect; inactive = no such curve, though single readings can be large or run the other way; tested in A549 cells; also: nearly all actives have a fitted effect of over 35% in size; inactives centre near -10
Vaccinia Venus: inhibitors of vaccinia virus (Venus reporter) | Vaccinia virus Venus reporter expression, fluorescence | Potency, µM (series often up to 36.5 µM), inactives show at the top dose activity change, negative = inhibition, hits mostly inhibitors | AID 720580 | hit rate 0.46% among 330,000; active means well fitted inhibition curve with a large enough effect; inconclusive means small, poorly fitted or top-dose-only effect; inactive means no such curve, though single readings can be large or run the other way; tested in A549 cells; also: nearly all actives have a fitted effect of over 30% in size; inactives centre near -10
Active calls of the source: *; i = inactive; u = inconclusive; x = no result given; & = joins results of further samples; [ ] = dose if it differs, or a comment. % is scaled to controls: 0 for no effect and ±100 for the full control effect; potency is read from the fitted curve at half-maximal effect. Rows were taken by chance; about 0.88% have a hit in one of these screens.

SMILES | VACV mCherry inh | Vaccinia Venus
COc1ccc(CNC(=O)C/C(C)=N/NC(=O)c2ccc([N+](=O)[O-])cc2Cl)cc1 | -1% | -7%
COc1ccc(C(=O)Oc2ccc(C3NC(=O)c4c(sc5c4CCN(C)C5)N3)cc2OC)cc1 (centres undefined) | -9% | -3%
CCCOc1ccc(CSC2=NCCN2)cc1[N+](=O)[O-] | x | -13%
CCOC(=O)CNc1ncc(C(F)(F)F)cc1Cl | -6% | 5%
O=C(Nc1ccccc1F)c1oc2ccccc2c1NC(=O)C1CC1 | i[7.34 µM] | 0%[7.34 µM]
Clc1ccc2[nH]c3c(NCCCN4CCOCC4)ncnc3c2c1 | -20% | u
O=C(O)Cn1c(P(=O)(O)c2ccccc2)nc2ccccc21 | -8% | -2%
CC(=O)c1cccc(NC(=O)CN2CCN(Cc3ccccc3)CC2)c1 | i | 5%
CCOC(=O)C1CCN(C(=O)Cn2cnc3sc(C)c(S(=O)(=O)N4CCC(C)CC4)c3c2=O)CC1 | i | -12%
N#CCC(=O)N/N=C/c1cc([N+](=O)[O-])ccc1N1CCCC1 | -23% | -11%
COc1ccc(/C=C2\Cc3ccccc3C2=O)cc1OC | -9% | -18%
COc1ccc(CN2C[C@H]3CON(C)[C@H]3C[C@H]2c2ccc(-c3ccccc3)cc2)cc1 | 7% | -5%
COc1cc(O)c(C(CC(=O)N2CCOCC2)c2ccc3c(c2)OCO3)c(OC)c1 (centres undefined) | i | -13%
COC(=O)C1=C(N)Oc2cc(C)n(Cc3ccncc3)c(=O)c2C1c1cccnc1 (centres undefined) | x | -16%
Cc1[nH]c(=O)n(C(C)C)c(=O)c1Br | -16% | -18%
c1ccc(CSc2ncccn2)cc1 | -4% | -3%
COc1ccc(Cl)cc1NC(=O)Cn1cccc1 | u | -6%
CN(C)c1ccc(CN2CCC(C(=O)NC(c3ccc(Cl)cc3)c3cnccn3)CC2)cc1 (centres undefined) | -8% | -17%
O=C(/C=C/c1ccccc1)N1CCN(Cc2cc(=O)n3nc(-c4ccccc4F)sc3n2)CC1 | -18% | -15%
CC[C@@H]1C(c2ccccc2)=NN(c2ccc(Br)cc2)[C@H]1C(=O)N1CCOC1=O | i | -10%
Cc1sc2ncnc(N3CCCC(C)C3)c2c1C (centres undefined) | i | -11%
COc1ccc(Br)cc1CN1CCN(C(=O)c2ccc(OC)c(OC)c2)CC1 | -2% | -3%
CC(SC1=NS(=O)(=O)c2ccccc21)C(=O)O (centres undefined) | -11% | -16%
COc1cccc(-c2noc(Cn3nc(C(=O)O)c4ccccc4c3=O)n2)c1 | -6% | -4%
CCc1nc2c(c(=O)c3ccccc3n2C)c(=O)n1-c1ccc(F)cc1 | -20% | -11%
CCN(Cc1ccccc1)C(=O)COC(=O)Cc1c[nH]c2ccccc12 | -16% | 0%
CC(C)c1cccc(C(C)C)c1NC1=NS(=O)(=O)c2ccccc21 | -2% | -6%
COc1cccc(OC)c1C(=O)N1CCN(Cc2cccnc2)CC1 | i | -18%
Cc1ccccc1-c1n[nH]c(=S)n1Cc1ccccc1 | -14% | -5%
COc1ccc(C(CNC(=O)c2cccc(S(=O)(=O)Nc3ccccc3Cl)c2)N2CCOCC2)cc1 (centres undefined) | u | -24%
COC(=O)[C@@]12C[C@@H](CC(=O)NCc3cccs3)C(=O)N(Cc3ccc4c(c3)OCO4)C1=CCC(C)(C)C2 | u | -25%
OC1CN=C2Sc3ccccc3N2C1 (centres undefined) | -4% | 2%
O=C(Cn1cnc2sc3c(c2c1=O)CCCC3)NCC(=O)Nc1ccccc1F | -5%[7.34 µM] | -17%[7.34 µM]
COc1ccc(C(=O)N/C(=C\c2cccc3ccccc23)C(=O)N2CCN(C)CC2)cc1OC | i | -15%
CC(=O)Nc1ccc(S(=O)(=O)N(C)CC(=O)OCC(=O)N(CC(C)C)C2CCS(=O)(=O)C2)cc1 (centres undefined) | -10% | 2%
O=C(O)c1cccc(CSc2nc(-c3ccccc3)cc(C(F)(F)F)n2)c1 | i | -3%
CC(=O)Nc1ccc(S(=O)(=O)NCc2ccc(C(=O)N3CCOCC3)cc2)cc1 | i | -5%
CCOc1ccccc1NC(=O)Nn1cnnc1 | i | 1%
Cc1ccc(-c2cnc3c(Nc4cccc(OC(F)(F)C(F)F)c4)nccn23)cc1 | -21% | -13%
CCCCCCNC(=O)N[C@@H](C(=O)NCCC[C@H]1CN2C(=NC[C@@H]2Cc2ccccc2)N1CCc1cccc(OC)c1)C(C)C | i | -24%
Cc1cccc(NC(=O)c2cccc(OC(=S)N3CCOCC3)c2)c1 | -8% | -11%
CC1=CC(c2ccccc2)n2nc(N3C(=O)C4CC=CCC4C3=O)nc2N1 (centres undefined) | -7% | -4%
COc1ccc(C2N3CC4(C)CN2CC(C)(C3)C4=O)cc1OC (centres undefined) | -6% | -1%
COc1ccc(Cl)cc1NC(=O)c1c(NCc2cccnc2)sc2c1CCCC2 | -1% | -10%
O=C(NCCNC(=O)c1cccnc1)c1cccnc1 | -8% | -5%
COc1cccc(-c2cc(C(=O)Nc3cccnc3)c3ccccc3n2)c1 | -14% | -10%
Cc1cccc(OCC(=O)Nc2ccc(S(=O)(=O)Nc3cc(C)nc(C)n3)cc2)c1 | i | -12%
CCOC(=O)c1nn(-c2ccc(F)cc2)c(=O)cc1OCC(=O)N1CCN(c2ccccc2)CC1 | -30% | -17%
Cc1cccc(NC(=O)c2cc3c(=O)n(Cc4cccnc4)ccc3nc2C)c1 | i | -7%
Cc1ccc(C(=O)OCc2c(C)noc2C)cc1NC(=O)c1ccco1 | -10% | -8%
N#Cc1ccc(-n2c(-c3ccccc3)nnc2-c2ccccc2)cc1C#N | u | -23%
CN(C)c1ccc(CNC(=O)C2CCN(S(=O)(=O)c3ccc4[nH]c(=O)ccc4c3)CC2)cc1 | 11% | 8%
O=C(C1CCCO1)N1CCC(O)(c2ccccc2)CC1 (centres undefined) | -13% | -5%
CCc1ccc(CCC(=O)N2CCN(S(=O)(=O)c3ccc(Br)cc3)CC2)cc1 | -10% | -27%
COc1ccc(COC(=O)c2ccc(S(=O)(=O)N3CCCCC3)cc2)cc1OC | -12% | 3%
COc1ccc(C(CNC(=O)CCNS(=O)(=O)c2ccccc2C(F)(F)F)N2CCOCC2)cc1 (centres undefined) | -8% | -7%
O=S(=O)(c1ccc(C(F)(F)F)cc1)N1CCN(CCc2ccccc2)CC1 | -3% | -10%
CCOc1ccc(C(=O)NCC(=O)NC(C)CCc2ccccc2)cc1OCC (centres undefined) | i | -18%
O=C(Nc1ccc2c(c1)OCO2)c1cc(C2CC2)on1 | -13% | -14%
Cc1cccc(NC(=S)NC(=O)/C=C/c2ccco2)c1 | u | -16%
The listing continues:
SMILES | VACV mCherry inh | Vaccinia Venus
O=C(N/N=C/c1ccccc1)C(=O)N/N=C/c1ccccc1 | -13% | -2%
Cc1ccc(CNC(=O)CN(C)S(=O)(=O)c2cccs2)cc1 | -8% | 0%
CCN(CC)S(=O)(=O)c1cc(NC(=O)COC(=O)c2sc3ccccc3c2Cl)ccc1C | -14% | -5%
COc1ccccc1NC(=O)CN1C(=O)CCS(=O)(=O)c2ccccc21 | i | -10%
Cc1ccc(-c2cc(C(F)F)nc(NCc3cccnc3)n2)cc1 | -18% | u
CC12CCC(=O)N1C(C(=O)NCCN1C(=O)S/C(=C\c3ccccc3F)C1=O)CS2 (centres undefined) | -16% | -15%
O=c1cc(CSc2nnc(COc3cccc4ccccc34)o2)c2ccccc2[nH]1 | -10% | -11%
Cc1cccc(-n2cnc(C(=O)O)c2)n1 | i | -8%
COc1cccc(NC(=O)C(NC2CCCC2)c2ccccc2)c1 (centres undefined) | -4% | 3%
COc1cccc(S(=O)(=O)N2CCN(C(=O)c3ccco3)CC2)c1 | -3% | -15%
Cc1sc2ncn3c(C)nnc3c2c1C | x | -9%
O=C(Nc1nnc(-c2ccncc2)o1)c1ccccc1 | -4% | 1%
CCCCc1nc2cc(C(=O)N(C)C3CCOCC3)ccc2o1 | i | -2%
COCCCNC(=O)C[C@H]1C[C@H](C(=O)N2CCCCC2)[C@@]2(C)c3[nH]c4cc(-c5ccco5)ccc4c3CCN2C1=O | -27% | u
O=C(Nc1nnc(C2CC2)s1)c1ccco1 | 3% | -8%
CCCCOc1ccc(C(=O)NCC(=O)NC2CC2)cc1 | i | -14%
O=C(Cc1ccc([N+](=O)[O-])cc1)OCc1c(F)cccc1Cl | i | -8%
Cc1cc(Br)ccc1NC(=O)c1ccc(NS(=O)(=O)c2c(C)noc2C)cc1 | -7% | 9%
CNc1cncc(-c2ccc(F)cc2F)n1 | i | 0%
Cc1ccc(CONC(=O)c2ccccc2)cc1 | 5% | -7%
COc1cc(Cl)c(C)cc1NC(=O)NC1COc2ccccc2C1 (centres undefined) | i | -15%
Cc1noc(C(=O)Nc2ccc3c(c2)OCO3)c1Cl | i | -1%
CN(C)C(=S)Nc1ccc2c(c1)OCCO2 | i[7.34 µM] | 12%[7.34 µM]
COc1ccc(-c2noc(CSc3nc(N)c(-c4ccccc4)c(=O)[nH]3)n2)cc1OC | x | -18%

Shown with tabs: entries from further up.
compound	VACV mCherry inh	Vaccinia Venus
Cc1cc(Br)ccc1NC(=O)c1ccc(NS(=O)(=O)c2c(C)noc2C)cc1	-7%	9%
CNc1cncc(-c2ccc(F)cc2F)n1	i	0%
Cc1ccc(CONC(=O)c2ccccc2)cc1	5%	-7%
COc1cc(Cl)c(C)cc1NC(=O)NC1COc2ccccc2C1 (centres undefined)	i	-15%
Cc1noc(C(=O)Nc2ccc3c(c2)OCO3)c1Cl	i	-1%
CN(C)C(=S)Nc1ccc2c(c1)OCCO2	i[7.34 µM]	12%[7.34 µM]
COc1ccc(-c2noc(CSc3nc(N)c(-c4ccccc4)c(=O)[nH]3)n2)cc1OC	x	-18%

Gathered by group, the compounds so far with an aryl thioether with sulfur outside any ring
SMILES | VACV mCherry inh | Vaccinia Venus
c1ccc(CSc2ncccn2)cc1 | -4% | -3%
O=C(O)c1cccc(CSc2nc(-c3ccccc3)cc(C(F)(F)F)n2)c1 | i | -3%
O=c1cc(CSc2nnc(COc3cccc4ccccc34)o2)c2ccccc2[nH]1 | -10% | -11%
COc1ccc(-c2noc(CSc3nc(N)c(-c4ccccc4)c(=O)[nH]3)n2)cc1OC | x | -18%

Additional compounds follow.
SMILES | VACV mCherry inh | Vaccinia Venus
O=C(Nc1ccccc1O)c1nc(Cl)ccc1Cl | -14% | -17%
O=S1(=O)N=C(Nc2ccc(O)c(CN3CCCCC3)c2)c2ccccc21 | i | -10%
CC(=O)c1ccc(S(=O)(=O)Nc2ccc(C(=O)NCC(c3ccccc3)N(C)C)cc2)cc1 (centres undefined) | -13% | -6%
CN(C)C(=O)c1cc(-c2ccccc2)no1 | -9% | -4%
CCS(=O)(=O)Nc1cccc(C(=C2CCCCC2)c2cnc[nH]2)c1 | -6% | -17%
O=C1[C@H]2[C@H](C=CC[C@H]2C(=O)N2CCN(c3ccccc3)CC2)CCN1Cc1ccc(Cl)c(Cl)c1 | -23% | u
O=C(CSc1nc(-c2ccco2)cc(C(F)(F)F)n1)NCCCn1ccnc1 | -5% | -4%
Cc1cccc(N=Nc2cnc(N)s2)c1 | -29% | -13%
CCOc1ccc(NC(=O)[C@H](Cc2ccccc2)N2Cc3ccccc3C2=O)cc1 | -5% | -4%
C=CCOc1cccc(C2C(C(=O)c3ccc(C)o3)=C(O)C(=O)N2CCN2CCOCC2)c1 (centres undefined) | -26% | -8%
CC(=O)c1cc(-c2ccccc2)n(CC(=O)N2CCC(N3CCCCC3)CC2)c1C | -25% | -7%
COc1ccc(OC)c2sc(NC(=O)c3ccc(Cl)s3)nc12 | -16% | u
O=C(c1cc(C2CC2)on1)N1CCN(C(c2ccccc2)c2ccccc2)CC1 | -4% | 0%
Cc1cccc(-n2c(N)cc(=O)[nH]c2=S)c1C | i | -14%
COc1ccccc1NC(=S)N(CCCN1CCOCC1)Cc1cccs1 | -25% | -25%
CCSc1nnc(NC(=O)c2cc(=O)c3cc(C)c(C)cc3o2)s1 | -6% | -11%
N#Cc1ccsc1NC(=O)CN1CCN(c2ccccc2)CC1 | i | -6%
Cc1ccc(Cl)cc1Nc1sc(C(=O)c2ccccc2)c(N)c1S(=O)(=O)c1ccccc1 | -13% | -10%
COc1ccc(C(=O)Nc2ccc3nc(N4CCCCC4)cc(C)c3c2)cc1OC | u | 0%[7.34 µM]
Cc1cc(-c2ccccc2)nc(N(C)NC(=O)c2cccc(C(F)(F)F)c2)c1S(C)(=O)=O | -8% | -4%
O=C(CS(=O)(=O)c1ccc(C(F)(F)F)cn1)NNC(=O)c1ccccc1 | u | 8%
O=C(CSc1nc(-c2ccccc2)cc(=O)[nH]1)N1CCOCC1 | -8% | -3%
CCN(Cc1ccccc1)C(=O)CCc1c(C)nc2c(c(C)nn2-c2ccc(C)c(C)c2)c1C | -6% | 0%
CC(=O)c1ccc(NC(=O)c2ccc(NC(=O)CCS(=O)(=O)c3cccs3)cc2)cc1 | -3%&-11% | -17%&-2%
CNc1nc(OC)nc(N2CCOCC2)n1 | -14% | 4%
Nc1nc2c(ncn2[C@@H]2O[C@H](CNS(=O)(=O)c3cccnc3)[C@@H](O)[C@H]2O)c(=O)[nH]1 | 13% | 5%
Cc1[nH]c2ccccc2c1N=Nc1ccc(F)cc1 | -21% | -21%
O=C(NCc1noc2ccccc12)N1CCN(c2ccccc2)CC1 | -3% | -4%
O=C(Nc1nc(-c2ccccc2)cs1)c1ccc(S(=O)(=O)N2CCc3ccccc32)cc1 | i | u
CCn1nccc1C(=O)Nc1cc(Cl)ccc1Cl | -29% | -21%
